HIV TAR-Tat = HIV-1 TAR-Tat binding disruption. AID 1259389. hit rate 0.6% among 100,000. z-score (test concentration not listed). HIV-1 TAR RNA, Tat peptide displacement FRET; active compounds read high;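 further: score is relative to mean and SD of negative controls; some compounds called inactive have numbers as strong as hits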
CDC25B CDK2 inh = human CDC25B-CDK2/CyclinA binding inhibition; z-score (no concentration beside the values); hit rate 0.72% among 94,000; P30305+P24941; AID 1259370; HTRF CDC25B-CDK2/CyclinA binding, anti-His/anti-Flag; active compounds read high;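 further: score is relative to mean and SD of negative controls; strong numbers were not always called active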
* marks the source's active call; other numbers are inactive results; · = no result given.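 How the source made its calls: active means z-score from 3 up in half or more of its runs; inactive means the rest.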

The opening 4 compounds (preview)
Every second line gives: HIV TAR-Tat	CDC25B CDK2 inh
CCOC(=O)c1cc(-c2ccc(S(=O)(=O)Nc3ccc(F)cc3)s2)on1
  -1	·
CC(CC(=O)N(C)C1CCCCC1)S(=O)(=O)c1ccc2c(c1)NC(=O)CO2 (stereo not drawn)
  0.86	·
CC(C)C(=O)NCCNC(=O)c1nonc1N
  1.52	-0.25
CCOc1ccc(-n2c(=S)sc3c(=O)[nH]c(SCC(=O)Nc4nccs4)nc32)cc1
  ·	-1.61

Main list (from the top)
Every second line gives: HIV TAR-Tat	CDC25B CDK2 inh
CCOC(=O)c1cc(-c2ccc(S(=O)(=O)Nc3ccc(F)cc3)s2)on1
  -1	·
CC(CC(=O)N(C)C1CCCCC1)S(=O)(=O)c1ccc2c(c1)NC(=O)CO2 (stereo not drawn)
  0.86	·
CC(C)C(=O)NCCNC(=O)c1nonc1N
  1.52	-0.25
CCOc1ccc(-n2c(=S)sc3c(=O)[nH]c(SCC(=O)Nc4nccs4)nc32)cc1
  ·	-1.61
O=S(=O)(Nc1cccnc1)c1cccc(C(F)(F)F)c1
  ·	-1.17
Cc1ccc2c(c1)c1c3n2CCN(CC(O)CN2CCCCCC2)C3CCC1 (stereo not drawn)
  ·	-4.29
Cc1ccc(S(=O)(=O)N2CCCC(c3nc(-c4ccccc4)no3)C2)cc1C (stereo not drawn)
  0.93	·
CCOC(=O)N1CCN(C(=O)c2cccn3c(=O)c4cc(Cl)ccc4nc23)CC1
  1.3	·
O=C(Nc1ccc(Cl)cc1)N1CCOCC1
  0.99	-0.65
CCNC(=O)N1c2cc(C)ccc2C(C)=CC1(C)C
  -0.97	-2.13
O=C(NC1CCCc2ccccc21)c1cc2c(Cl)ccc3c2n1CCO3 (stereo not drawn)
  0.75	·
Cc1cc(C)c2nc(Nc3nc(C)c(C)c(=O)[nH]3)nc(C)c2c1
  ·	1.26
Clc1ccc(-c2csc(-c3cccnc3)n2)s1
  ·	-1.29
O=c1c(N2CCOCC2)nsn1Cc1ccccc1
  -0.53	0.4
Cc1noc(C)c1-c1nc(CSc2n[nH]c(=O)n2Cc2ccco2)no1
  ·	-2.45
CN1C(=O)NC(c2ccc(Cl)cc2)C(C(=O)c2cccs2)C1(O)C(F)(F)F (stereo not drawn)
  ·	-0.85
CC(C)c1ccc(C(O)c2cnc(C(C)C)n2C)cc1 (stereo not drawn)
  ·	-2.21
CCS(=O)(=O)c1ncc(Cl)c(C(=O)N(Cc2cccc(Cl)c2)C2CCS(=O)(=O)C2)n1 (stereo not drawn)
  0.88	-1.7
Cc1ccc(-c2nc3cc(Cl)ccc3c(=O)o2)cc1C
  1.02	-2.19
Cc1cc(C)cc(NC(=O)N2CCC3(CC2)CC(=O)c2ccccc2O3)c1
  0.68	·
Cc1cccc2cc(CN(c3ccccc3)S(C)(=O)=O)c(=O)[nH]c12
  -0.14	-1.58
COc1cc(-n2cccc2)cc(C(F)(F)F)c1
  ·	-2.6
CC1=C(C(=O)Nc2ccc(F)cc2F)C(c2ccc3c(c2)OCO3)C2=C(CC(C)(C)CC2=O)N1 (stereo not drawn)
  0.92	1.12
CCOc1ccccc1C1C(C(=O)OCCOC)=C(C)NC2=C1C(=O)CC(c1ccccc1)C2 (stereo not drawn)
  0.72	-0.45
Cn1c(=O)c2c(nc(NCCc3ccc(O)cc3)n2C)n(C)c1=O
  ·	-2.19
CC1(C)CC2CC(C)(CN2C(=O)c2cc(-c3ccc4c(c3)OCO4)on2)C1 (stereo not drawn)
  ·	1.43
N#Cc1c(OCC(F)(F)F)ccc(S(=O)(=O)N2CCCC2)c1OCC(F)(F)F
  ·	-1.05
O=C(CC1CCCC1)N1CCCC(c2nc3c(nnn3Cc3ccccc3)c(=O)[nH]2)C1 (stereo not drawn)
  -0.16	-1.81
O=[N+]([O-])c1ccc(N2CCN(Cc3ccccc3)CC2)s1
  3.62	·
CC1CCC(NC(=O)CC(C)S(=O)(=O)c2ccc3c(c2)NC(=O)CO3)CC1 (stereo not drawn)
  1.52	·
CCN(CCNC(=O)CN(C)S(=O)(=O)c1ccc2c(c1)CCC(=O)N2)c1ccccc1
  ·	0.54
CC1(C)CC(=O)C2=C(C1)Nc1nc(N)[nH]c(=O)c1C2c1ccc(F)cc1 (stereo not drawn)
  -0.71	-1.09
CC1(C(=O)O)CC(=O)N=C2C=CC=CN21 (stereo not drawn)
  2.2	0.31
NC(=O)c1ccc(Cl)c(N2C(=O)C3C4c5ccccc5C(c5ccccc54)C3C2=O)c1 (stereo not drawn)
  ·	0.06
O=S(=O)(c1ccc(-n2cccn2)cc1)N1CCn2c1nc1ccccc12
  1.11	·
Cn1cc(Br)c(NS(=O)(=O)c2ccccc2C(F)(F)F)n1
  ·	-0.83
COc1ccc(C2=NS(=O)(=O)N(C)C(C(=O)NC3CCCCC3)=C2)cc1OC
  1.38	-1.65
O=C(NC1CCCCCC1)C1CCC(CNS(=O)(=O)c2cccc3cccnc23)CC1 (stereo not drawn)
  ·	-1.84
O=c1[nH]c2ccccc2c(=O)n1CCc1nc(-c2ccc3c(c2)OCO3)no1
  0.05	-2.08
Fc1ccc(-c2nnc(CN3CCN(c4ccccn4)CC3)o2)cc1
  0.72	-1.67
Cc1ccccc1Nc1ncnc2c1nc1n2CCCCC1
  0.39	·
O=C1c2[nH]nc(-c3ccccc3O)c2C(c2cccc(OCc3ccccc3)c2)N1CC1CCCO1 (stereo not drawn)
  1.1	0.89
CCc1ccc(S(=O)(=O)Nc2ccc(-c3ccc(S(C)(=O)=O)nn3)cc2)cc1
  -1.97	·
CC(=O)Nc1cc(C(=O)N2CCN(c3ccccn3)CC2)ccc1Sc1ccc(C)cc1
  ·	-1.14
CCCN1CCN(CCCN=C2NS(=O)(=O)C(c3ccc(C)cc3)=C2C)CC1
  -0.34	-1.64
O=C(Cn1c(=O)oc2cc(S(=O)(=O)N3CCCC3)ccc21)NC1CCCCC1
  0.94	-0.19
CC(C)NC(=O)c1ccc2c(c1)CCN2S(=O)(=O)c1ccc(Br)cc1
  2.22	-0.75
COc1ccc(C2N3CC(C)(C)CN23)cc1OC (stereo not drawn)
  2.31	-1.81
Cc1nc(N2CCCC2)ncc1C(=O)NCCc1c(C)noc1C
  1.48	·
CCn1c(=O)c(SCC(=O)OC)nc2cccnc21
  0.06	0.05
COc1ccccc1-n1cnc2cc(NS(=O)(=O)c3ccc(Br)cc3)ccc21
  ·	0.46
COc1ccc(Nc2ncc3c(n2)CCN(Cc2cc(Br)cs2)C3)c(OC)c1
  0.48	·
CCOC(=O)C1CCN(C(=O)Cn2c3ccccc3c3nc(=O)cc(C)n32)CC1
  -0.87	-0.83
CSc1cccc(NS(=O)(=O)c2ccc(-n3cccn3)cc2)c1
  -0.32	·
O=C(c1ccc(CSc2nc3ccncc3n2Cc2ccccc2F)cc1)N1CCCC1
  1.83	-1.02
COc1cnc(CSc2ccc(Cl)cc2)cc1OCC(=O)N1CCc2ccccc21
  0.84	·
Cc1ccc(CNC(=O)NCc2cccn2Cc2cc(C)ccc2C)cc1
  0.55	·
COc1ccc(OCc2nn3c(C4COc5ccccc5O4)nnc3s2)cc1 (stereo not drawn)
  1	-0.32
COC(=O)C(CCSC)NC(=O)c1c2c(nc3ccccc13)C(=O)N(C1CCCCC1)C2 (stereo not drawn)
  1.22	·
CC1CCN(S(=O)(=O)c2ccc3ccccc3c2)CC1
  -0.01	-0.56

Remaining list, next part
Every second line gives: HIV TAR-Tat	CDC25B CDK2 inh
COCCCN(Cc1ccco1)c1nc(-c2ccc(OC)cc2)nc2ccccc12
  1.39	·
COc1ccc(-c2ccc(=O)[nH]n2)cc1OC
  -0.39	-1.22
CC1CCCN(Cc2cn3c(-c4cccc(Br)c4)nnc3s2)C1 (stereo not drawn)
  0.08	·
CC(CC(=O)NCCC1=CCCCC1)S(=O)(=O)c1ccc2c(c1)CCN2C(=O)C1CC1 (stereo not drawn)
  -0.62	·
O=C(O)C1Sc2c(sc(=O)n2Cc2ccc(Cl)cc2)C2c3ccccc3OC(=O)C12 (stereo not drawn)
  ·	-1.59
CC1(C)CC2(CCO1)CN(CC#N)CCN2CC#N (stereo not drawn)
  ·	-0.02
CC(=O)OCC12COC3c4ccccc4OC(C)(CC1C)C3C2C (stereo not drawn)
  -1.12	-1.24
O=C(Nc1ccc2c(c1)OCCO2)c1cnn2c3c(cnc12)CCCCCC3
  -0.07	·
CCCCN(CC)S(=O)(=O)c1cc(Br)cc2c1N(C(C)=O)CC2
  ·	-0.57
COC(=O)C(C)Sc1nnc(CSc2ncccn2)n1-c1ccc(OC)cc1 (stereo not drawn)
  0.06	-2.08
O=S(=O)(c1ccc2ccccc2c1)N1CCN(C2CCN(Cc3ccccc3)CC2)CC1
  -0.51	-0.42
Cc1cc(-c2noc(-c3cccc(F)c3)n2)c2ccccc2n1
  -0.6	0.97
O=C1c2cccnc2C(=O)N1CCc1ccc(S(=O)(=O)NCc2ccc(F)cc2)cc1
  0.48	·
COC(=O)C(C)Sc1ccc2nnc(-c3ccc(Cl)cc3)n2n1 (stereo not drawn)
  ·	1.09
CCOCCOC(=O)C1=C(C)NC2=C(C(=O)CCC2)C1c1ccc(OC(C)=O)cc1 (stereo not drawn)
  0.66	-0.12

Part of the list above, with each value named.
CC(=O)OCC12COC3c4ccccc4OC(C)(CC1C)C3C2C (stereo not drawn)
- HIV TAR-Tat: -1.12
- CDC25B CDK2 inh: -1.24
O=C(Nc1ccc2c(c1)OCCO2)c1cnn2c3c(cnc12)CCCCCC3
- HIV TAR-Tat: -0.07
- CDC25B CDK2 inh: ·
CCCCN(CC)S(=O)(=O)c1cc(Br)cc2c1N(C(C)=O)CC2
- HIV TAR-Tat: ·
- CDC25B CDK2 inh: -0.57
COC(=O)C(C)Sc1nnc(CSc2ncccn2)n1-c1ccc(OC)cc1 (stereo not drawn)
- HIV TAR-Tat: 0.06
- CDC25B CDK2 inh: -2.08

More records:
| SMILES | HIV TAR-Tat | CDC25B CDK2 inh |
| --- | --- | --- |
| CN(C)c1ccc(N2CCC(C(=O)N3CCC(N4CCCCC4)CC3)CC2)nn1 | 0.26 | · |
| Cc1ccc(C)c(NCc2nnc3n2CCCCC3)c1 | -0.38 | · |
| O=S(=O)(Nc1cccc(-c2ccc(N3CCOCC3)nn2)c1)c1ccc2c(c1)CCCC2 | 0.21 | · |
| CCn1c2ccccc2c2nnc(N3CCc4ccccc4C3)nc21 | 1.2 | -1.47 |
| CC1=C(c2ccc(C)cc2)S(=O)(=O)NC1=NCCCN1CCOCC1 | -0.95 | -1.42 |
| Cc1ccc(CCn2c(C)c(C)c3ccccc32)cn1 | -2.52 | -0.1 |
| CCCc1cc(=O)n2nc(N3CCC(C(=O)N4CCN(C5CCCCC5)CC4)CC3)sc2n1 | -0.73 | -2.47 |
| CCc1nn2c(=O)cc(CSc3nnc(Cc4c(C)nc5c(C)cccn5c4=O)n3C)nc2s1 | 0.49 | -0.76 |
| Cc1ccc(-c2nc3c4c(C)c(C)n(CCO)c4ncn3n2)cc1 | 0.3 | -2.06 |
| CCCN1C(=O)C(NC(C)=O)c2cc(Cl)ccc21 (stereo not drawn) | -0.61 | 0.12 |
| CC(=O)Nc1c(O)[nH]c2ccccc12 | 1.39 | 0.69 |
| S=c1cc(-c2ccc(Cl)cc2)ss1 | · | 1.07 |
| CC(=O)N1CCC2(CC1)OC(=O)C(C)=C2C(=O)NCCCN1CCC(N2CCCCC2)CC1 | 1.3 | · |
| O=C(COCc1cc(-c2cccs2)on1)NCc1cccs1 | -0.74 | · |
| CCCCCCC(=O)Nc1cc2nc3[nH]c(=O)n(C)c(=O)c3nc2cc1C | -4.73 | 1.53 |
| O=C(O)c1ccc(N2N=C(c3ccccc3)CC2c2ccccc2)cc1 (stereo not drawn) | · | -0.26 |
| C=CCNC(=O)CCCc1nnc2n3nc(-c4ccccc4)nc3c3ccccc3n12 | 0.72 | 0.99 |
| c1ccc(C2=Nn3c(nnc3C3COc4ccccc4O3)SC2)cc1 (stereo not drawn) | -0.47 | -1.43 |
| O=c1[nH]c(SCc2c(Cl)cccc2Cl)nc2ccnn12 | · | -0.94 |
| CC[n+]1c(C)csc1Nc1ccc(N2CC(C)OC(C)C2)cc1 (stereo not drawn) | · | -0.78 |
| Cn1c(=O)n(C)c2cc(NC(=O)CN3C(=O)c4ccccc4S3(=O)=O)ccc21 | 1.13 | -0.58 |
| CN(C(=O)c1nn(C)c2c1COc1ccccc1-2)c1ccc(Br)cc1 | 0.81 | -0.6 |
| C[C@@H]1O[C@@H](OC2O[C@@H](COc3cc(O)c4c(=O)cc(-c5ccc(O)cc5)oc4c3)[C@@H](O)[C@@H](O)[C@@H]2O)[C@H](O)[C@H](O)[C@H]1O (stereo partly drawn) | 1.16 | · |
| Cc1ccc(OCCCn2cnc3cc(C)c(C)cc32)cc1 | 1.54 | -2.4 |
| c1ccc(NCc2ccc3c(c2)OCO3)nc1 | 1.16 | -0.55 |
| COc1cccc(C2C3=C(CCCC3=O)Nc3[nH]n(-c4ccccc4)c(=O)c32)c1 (stereo not drawn) | -0.26 | -6.92 |
| O=C1CCCN1CCCNc1ncnc2scc(-c3ccc(F)cc3)c12 | -0.58 | · |
| COc1cc(-c2cc(OC)c(C)cc2OC)c(OC)cc1C | · | -0.42 |
| CCC(C)NC(=O)CNS(=O)(=O)c1cccs1 (stereo not drawn) | -0.3 | · |
| CCCCN(C)S(=O)(=O)c1ccc2c(c1)CC(C)N2C(=O)CC (stereo not drawn) | -0.8 | · |
| CCS(=O)(=O)n1nc(-c2ccccc2)nc1SCc1ccccc1 | -0.05 | 0.69 |
